MLL AF4-AF9 inh: blocks AF4 peptide binding to human AF9; P42568; AlphaScreen, biotin-AF4 peptide binding to FLAG-AF9; inhibition, % at 10 µM; 350,000 tested, 0.47% active;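 active means every replicate reaching a set inhibition limit, whatever the replicate mean, cut at about 25% in these data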;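 further: 0% = plate neutral control median and 100% = total signal loss; the record names both 10 and 1 µM as test concentration; the first replicate is given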
Target sequence (P42568 whole entry, looked up): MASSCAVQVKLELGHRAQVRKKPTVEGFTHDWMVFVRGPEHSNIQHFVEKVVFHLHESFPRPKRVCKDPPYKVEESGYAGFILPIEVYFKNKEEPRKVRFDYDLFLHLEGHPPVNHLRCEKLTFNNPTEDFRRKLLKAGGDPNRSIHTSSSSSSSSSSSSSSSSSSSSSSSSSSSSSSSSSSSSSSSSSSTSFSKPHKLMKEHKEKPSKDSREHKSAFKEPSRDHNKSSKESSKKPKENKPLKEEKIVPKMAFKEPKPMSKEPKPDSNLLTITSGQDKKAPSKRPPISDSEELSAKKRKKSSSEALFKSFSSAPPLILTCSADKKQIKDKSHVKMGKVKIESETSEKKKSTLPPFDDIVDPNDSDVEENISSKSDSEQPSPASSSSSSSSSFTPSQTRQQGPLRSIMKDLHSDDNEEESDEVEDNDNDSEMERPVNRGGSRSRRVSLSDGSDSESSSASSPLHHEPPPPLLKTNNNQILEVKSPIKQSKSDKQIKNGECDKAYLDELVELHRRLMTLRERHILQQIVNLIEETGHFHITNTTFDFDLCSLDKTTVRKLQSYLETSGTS
* = called active by the depositor. Some of the compounds tested (hit frequency here may not be typical).

SMILES | MLL AF4-AF9 inh
C[C@H](CO)N1C[C@H](C)[C@@H](CN(C)Cc2ccc3c(c2)OCO3)OCCCC[C@H](C)Oc2ccc(NC(=O)Nc3ccc(C(F)(F)F)cc3)cc2C1=O | 4.8
C[C@@H]1CN([C@H](C)CO)C(=O)c2cccc(NS(=O)(=O)c3cn(C)cn3)c2O[C@@H]1CN(C)S(=O)(=O)c1ccc(Cl)cc1 | -0.1
CCCCN(C=O)c1c(CC)nc2ccc(C(=O)N(C)Cc3ccco3)cn12 | 0.3
CO[C@@H]1CN(C)C(=O)c2ccc(NS(=O)(=O)c3ccccc3)cc2OC[C@H](C)NC[C@H]1C | -4.1
O=C(C[C@H]1CC[C@H](NC(=O)Nc2ccc(C(F)(F)F)cc2)[C@@H](CO)O1)NCc1cccc(F)c1 | 0.4
C[C@@H]1CN([C@@H](C)CO)C(=O)c2ccccc2-c2ccccc2CO[C@H]1CN(C)Cc1ccccc1C(F)(F)F | 8.7
Cc1cccc(S(=O)(=O)N2CC[C@@H]3[C@H]2c2cc(Br)ccc2N(C)[C@H]3CO)c1 | 2.7
CO[C@@H]1CN(C)C(=O)c2cc(NS(=O)(=O)CC(F)(F)F)ccc2OC[C@@H](C)N(C(=O)NC(C)C)C[C@@H]1C | -3.6
COCC#Cc1cnc2c(c1)C(=O)N([C@H](C)CO)C[C@H](C)[C@H](CN(C)C(=O)c1cnccn1)O2 | -2.5
CC(C)C#Cc1ccc2c(c1)O[C@@H](CN(C)Cc1cncnc1)[C@@H](C)CN([C@H](C)CO)S2(=O)=O | 1.1
CN1C(=O)c2cc(NC(=O)NCc3ccccc3)ccc2OC[C@H]2O[C@H](CC(=O)O)CC[C@H]21 | -0.3
COc1ccc2c3c([nH]c2c1)[C@H](CO)N(C(=O)c1ccccc1)CC31CN(Cc2cccnc2)C1 | -2.7
O=C(C[C@@H]1CC[C@@H](NC(=O)Nc2ccc(C(F)(F)F)cc2)[C@H](CO)O1)NCc1ccccn1 | 0.3
CC(C)NC(=O)C1(C)CCN1C(=O)c1ccccc1Oc1ccccc1 (stereo not given) | -4.0
C[C@H](CO)N1C[C@H](C)[C@H](CN(C)CC2CC2)Oc2ccc(NC(=O)Cc3ccccc3)cc2CC1=O | -13

A section from the list above, as a working copy:
SMILES | MLL AF4-AF9 inh
C[C@@H]1CN([C@H](C)CO)C(=O)c2cccc(NS(=O)(=O)c3cn(C)cn3)c2O[C@@H]1CN(C)S(=O)(=O)c1ccc(Cl)cc1 | -0.1
CCCCN(C=O)c1c(CC)nc2ccc(C(=O)N(C)Cc3ccco3)cn12 | 0.3
CO[C@@H]1CN(C)C(=O)c2ccc(NS(=O)(=O)c3ccccc3)cc2OC[C@H](C)NC[C@H]1C | -4.1
O=C(C[C@H]1CC[C@H](NC(=O)Nc2ccc(C(F)(F)F)cc2)[C@@H](CO)O1)NCc1cccc(F)c1 | 0.4

Later entries:
SMILES | MLL AF4-AF9 inh
COc1ccccc1C#Cc1ccc2c(c1)O[C@@H](CN(C)Cc1cccnc1)[C@@H](C)CN([C@@H](C)CO)S2(=O)=O | 5.7
Cc1cc(C(=O)Nc2cccc3c2O[C@H](CN(C)S(=O)(=O)c2c(C)noc2C)[C@H](C)CN([C@H](C)CO)C3=O)n(C)n1 | 0.8
CNC(=O)c1ccc(CN(C)C(=O)c2cc(C3CC3)nc3c2cnn3C(C)C)cc1 | -6.0
COCC(=O)N(C)C[C@@H]1Oc2ncc(-c3ccc(C#N)cc3)cc2C(=O)N([C@@H](C)CO)C[C@@H]1C | -16
C/C=C/c1ccc([C@H]2[C@@H](CO)N(c3nc(C)c(C)s3)[C@@H]2CNCC(C)C)cc1 | 7.5
C[C@@H]1CN([C@H](C)CO)S(=O)(=O)c2ccc(-c3ccc(F)cc3)cc2O[C@H]1CN(C)S(C)(=O)=O | 1.4
COc1ccc(NC(=O)c2sc(=O)n(Cc3ccc(S(=O)(=O)N(C)C)cc3)c2C)cc1 | -5.0
C[C@@H]1CN([C@H](C)CO)C(=O)c2cccc(NC(=O)c3ccncc3)c2O[C@H]1CN(C)Cc1ccccc1 | 1.9
COCC(=O)N1[C@@H](CO)[C@@H](c2ccccc2)C12CN(C(=O)c1cccnc1)C2 | -3.5
O=C(C[C@H]1C=C[C@H](NS(=O)(=O)c2ccc(F)cc2)[C@@H](CO)O1)NCCN1CCCCC1 | -0.7
C[C@H]1CN([C@@H](C)CO)C(=O)c2cc(-c3ccc(F)cc3)cnc2O[C@@H]1CN(C)C(=O)c1ccc(F)cc1 | -2.9
CC[C@@H](NC(=O)[C@H](Cc1ccccc1)NC(=O)CC[C@H]1O[C@@H](n2ccc(=O)[nH]c2=O)[C@H](O)[C@@H]1O)c1ccccc1 | -0.3
CC(C)NC(=O)N(C)C[C@@H]1OCCCC[C@H](C)Oc2ccc(NC(=O)c3ccncc3)cc2C(=O)N([C@@H](C)CO)C[C@H]1C | 5.3
CCNC(=O)C1(C)CCCN(C(=O)c2sccc2C)C1 (stereo not given) | 0.3
C[C@H](CO)N1C[C@H](C)[C@H](CN(C)Cc2ccc(C(=O)Nc3ccccc3N)cc2)Oc2ccc(NS(C)(=O)=O)cc2C1=O | 1.3

Ordered by heavy-atom count (lowest first): 4 of the compounds above.
SMILES | MLL AF4-AF9 inh
CCNC(=O)C1(C)CCCN(C(=O)c2sccc2C)C1 (stereo not given) | 0.3
O=C(C[C@H]1C=C[C@H](NS(=O)(=O)c2ccc(F)cc2)[C@@H](CO)O1)NCCN1CCCCC1 | -0.7
COCC(=O)N(C)C[C@@H]1Oc2ncc(-c3ccc(C#N)cc3)cc2C(=O)N([C@@H](C)CO)C[C@@H]1C | -16
C[C@H](CO)N1C[C@H](C)[C@H](CN(C)Cc2ccc(C(=O)Nc3ccccc3N)cc2)Oc2ccc(NS(C)(=O)=O)cc2C1=O | 1.3

Continued.
SMILES | MLL AF4-AF9 inh
C/C=C/c1ccc([C@H]2[C@@H](CO)N(Cc3ccc(F)cc3)[C@H]2CNC(C)=O)cc1 | -0.7
CO[C@H]1CN(C)C(=O)c2cc(NS(C)(=O)=O)ccc2OC[C@@H](C)N(Cc2nccs2)C[C@@H]1C | -2.7
C[C@@H]1CN([C@H](C)CO)C(=O)c2cc(NC(=O)Cc3ccccc3)ccc2O[C@@H](C)CCCCO[C@H]1CN(C)Cc1ccccc1 | 4.0
Cc1ccc(S(=O)(=O)Nc2cccc3c2O[C@H](CN(C)S(=O)(=O)c2ccc(C)cc2)[C@@H](C)CN([C@@H](C)CO)C3=O)cc1 | 2.1
C[C@H]1CN([C@@H](C)CO)C(=O)Cc2cc(NC(=O)Nc3ccc4c(c3)OCO4)ccc2O[C@H]1CN(C)CC1CC1 | 9.4
CC(C)CC#Cc1ccc2c(c1)O[C@H](CN(C)C(=O)C1CCC1)[C@H](C)CN([C@@H](C)CO)S2(=O)=O | 3.3
CC(C)NC(=O)Nc1cccc2c1O[C@H](CN(C)Cc1ccc(-c3ccccc3)cc1)[C@H](C)CN([C@@H](C)CO)C2=O | 3.4
O=S(=O)(c1ccc(F)cc1)N1CCCCN2[C@H](CO)[C@H](c3ccc(C#CC4CCCC4)cc3)[C@H]2C1 | 5.9
COc1ccc(S(=O)(=O)N[C@@H]2C=C[C@H](CC(=O)N3CCc4ccccc4C3)O[C@@H]2CO)cc1 | -2.8
COc1ccccc1NC(=O)N1CCCCN2[C@H](C1)[C@H](c1ccc(-c3cccc(C#N)c3)cc1)[C@@H]2CO | -6.0
CN(C)C(=O)[C@H]1[C@H](CO)[C@H]2Cn3c(ccc(C4=CCCC4)c3=O)[C@@H]1N2S(=O)(=O)c1cn(C)cn1 | -1.9
C[C@@H]1CN([C@H](C)CO)C(=O)Cc2cc(NC(=O)c3ccncc3)ccc2O[C@H]1CN(C)S(=O)(=O)c1ccccc1 | -1.6
COc1ccc(NC(=O)N(C)C[C@@H]2OCCCC[C@H](C)Oc3ccc(NS(=O)(=O)c4ccccc4)cc3C(=O)N([C@H](C)CO)C[C@H]2C)cc1 | 4.3
CNC[C@@H]1Oc2c(NC(=O)C3CCCCC3)cccc2C(=O)N([C@@H](C)CO)C[C@H]1C | 3.3
C[C@@H]1CN([C@@H](C)CO)S(=O)(=O)c2ccc(C3=CCCC3)cc2O[C@@H]1CN(C)Cc1cccc(C(=O)O)c1 | -7.7
O=C(CCCc1ccccc1)NCCS(=O)(=O)N1CCN(c2ccccc2)CC1 | -3.6
CO[C@H]1CN(C)C(=O)c2ccc(NC(=O)Cc3ccccc3)cc2OC[C@H](C)N(C(C)=O)C[C@@H]1C | -2.2
COc1ccc(CN2C[C@@H](CO)O[C@@H](n3cnc4c(N(C)C)ncnc43)C2)cc1 | 0.8
CC(C)NC(=O)N(C)C[C@H]1Oc2ccc(N(C)C)cc2C(=O)N([C@@H](C)CO)C[C@H]1C | -2.4
CO[C@H]1CN(C)C(=O)c2ccc(NS(C)(=O)=O)cc2OC[C@H](C)N(Cc2cncnc2)C[C@@H]1C | -2.8
O=C(C1CCC1)N1CCCCN2[C@H](CO)[C@H](c3ccc(-c4cccc(F)c4)cc3)[C@H]2C1 | -1.5
COc1cccc(-c2cnc(C(O)c3ccc(SC)cc3)[nH]2)c1 (stereo not given) | 7.9
O=C(NCc1ccco1)c1ccc(S(=O)(=O)N2CCCCCC2)cc1 | -38
COc1ccc(NC(=O)Nc2ccc3c(c2)C(=O)N([C@H](C)CO)C[C@@H](C)[C@@H](CN(C)C(=O)CCCN(C)C)OCCCC[C@@H](C)O3)cc1 | 13
COc1ccc(S(=O)(=O)N(C)C[C@@H]2OCCCC[C@@H](C)Oc3ccc(NS(=O)(=O)c4ccccc4)cc3C(=O)N([C@H](C)CO)C[C@H]2C)cc1 | 1.5
COCC(=O)N(C)C[C@@H]1Oc2cc(-c3cccc(F)c3)ccc2S(=O)(=O)N([C@H](C)CO)C[C@H]1C | -0.5
C=CC(=O)Nc1ccc(N(C)c2ccnc(Nc3ccc(N4CCN(C)CC4)cc3)n2)cc1 | 60*
CN1c2ccc(Br)cc2[C@@H]2[C@@H](CCN2S(=O)(=O)c2cccc(F)c2)[C@H]1CO | -0.6
CC(C)CC#Cc1cnc2c(c1)C(=O)N([C@@H](C)CO)C[C@@H](C)[C@H](CN(C)C(=O)c1cnccn1)O2 | 1.1
CNC[C@@H]1OCCCC[C@@H](C)Oc2ccc(NC(=O)Nc3cccc4ccccc34)cc2C(=O)N([C@@H](C)CO)C[C@H]1C | 5.4
CN1CCN(C(=O)c2ccc(Cc3cn(C)c4ccccc34)nc2)CC1 | 1.4
COc1ccccc1-c1csc(C(O)c2cccc(Cl)c2)n1 (stereo not given) | -4.4
C[C@@H]1CN([C@@H](C)CO)C(=O)c2cc(NC(=O)C3CC3)ccc2O[C@@H]1CN(C)S(=O)(=O)c1ccc(Cl)cc1 | -1.3
CCCNC(=O)N(C)C[C@H]1Oc2cc(C#C[C@H](C)O)ccc2S(=O)(=O)N([C@H](C)CO)C[C@@H]1C | 2.4
CN1CCC(C)(C(=O)Nc2cccc3c2CCCC3)C1 (stereo not given) | 0.3
Cc1noc(C)c1NC(=O)Nc1ccc2c(c1)C(=O)N([C@H](C)CO)C[C@@H](C)[C@H](CN(C)Cc1ccc(C(F)(F)F)cc1)O2 | 4.6
C[C@H]1CN([C@@H](C)CO)C(=O)Cc2cc(NC(=O)CCN3CCOCC3)ccc2O[C@H]1CN(C)CC1CC1 | -8.2
CO[C@H]1CN(C)C(=O)c2cc(NS(C)(=O)=O)ccc2OC[C@H](C)N(C(=O)C2CC2)C[C@H]1C | 0.4
Cc1ccc(-c2cnc3c(c2)C(=O)N([C@@H](C)CO)C[C@H](C)[C@@H](CN(C)Cc2ccccc2C(=O)O)O3)cc1 | -0.3
CC1(C(=O)NS(=O)(=O)c2cccc(Cl)c2)CCN1C(=O)CC1CC1 (stereo not given) | -4.6
CCNC(=O)C[C@H]1CC[C@H]2[C@H](COc3ccc(NC(=O)C4CCOCC4)cc3C(=O)N2C)O1 | -0.2
C[C@H]1CN([C@@H](C)CO)C(=O)c2cccc(NC(=O)Nc3ccc(C(F)(F)F)cc3)c2O[C@H]1CN(C)S(C)(=O)=O | 2.7
Cn1cnc(S(=O)(=O)N2CCCCN3[C@H](CO)[C@H](c4ccc(C#CC5CC5)cc4)[C@@H]3C2)c1 | -1.3
C[C@H](CO)N1C[C@H](C)[C@@H](CN(C)Cc2ccc(Cl)c(Cl)c2)Oc2ccc(NC(=O)NC3CCCCC3)cc2C1=O | 0.3
COc1cccc(C#Cc2ccc([C@@H]3[C@@H](CO)N4C(=O)CN(C(C)=O)C[C@H]34)cc2)c1 | -5.5
C=C1[C@H](C)CN(S(=O)C(C)(C)C)[C@H]1CCO (stereo not given in full) | -5.2
CC(C)NC(=O)N(C)C[C@H]1Oc2cc(C3=CCCC3)ccc2S(=O)(=O)N([C@H](C)CO)C[C@@H]1C | -5.7
C[C@H]1CN([C@@H](C)CO)S(=O)(=O)c2ccc(C#CC3CC3)cc2O[C@H]1CN(C)Cc1ccc(F)cc1 | 4.5
COc1ccc(S(=O)(=O)N(C)C[C@H]2Oc3ccc(N(C)C)cc3C(=O)N([C@@H](C)CO)C[C@H]2C)cc1 | 2.8
C[C@H](NC(=O)[C@H]1[C@H](CO)[C@H]2Cn3c(ccc(/C=C/c4ccccc4)c3=O)[C@@H]1N2)c1ccccc1 | -12
C[C@H]1CN([C@@H](C)CO)C(=O)CCCn2cc(nn2)CO[C@H]1CN(C)Cc1cccnc1 | -7.9
CNC(=O)C1Cc2c(-c3ccc(Cl)cc3)ccnc2O1 (stereo not given) | 3.2
C[C@H](CO)N1C[C@H](C)[C@@H](CN(C)C(=O)Nc2ccc(F)cc2)Oc2ccc(NC(=O)C3CC3)cc2C1=O | -0.5
COc1ccc(NC(=O)Nc2ccc3c(c2)C(=O)N([C@@H](C)CO)C[C@@H](C)[C@H](CN(C)C(=O)Nc2ccc(F)cc2)O3)cc1 | 1.9

Screening results as filed in PubChem BioAssay.
